# KCNQ2 block – KCNQ2 channel blockers in CHO-K1 cells – cell-based, FluxOR thallium flux, B-score, primary screen (AID 2156); 20 min; stronger effect = lower value; only compounds with negative scores are shown here; some inactives read as strong as hits; 310,000 compounds, 1.1% hits; O88943; B-score at 10 µM;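 active = fluorescence ratio B-score at most minus 3 library SDs, with starting brightness B-score within 2 library SDs, cut at about -5.5 in these data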
# Target sequence (O88943 whole entry, looked up): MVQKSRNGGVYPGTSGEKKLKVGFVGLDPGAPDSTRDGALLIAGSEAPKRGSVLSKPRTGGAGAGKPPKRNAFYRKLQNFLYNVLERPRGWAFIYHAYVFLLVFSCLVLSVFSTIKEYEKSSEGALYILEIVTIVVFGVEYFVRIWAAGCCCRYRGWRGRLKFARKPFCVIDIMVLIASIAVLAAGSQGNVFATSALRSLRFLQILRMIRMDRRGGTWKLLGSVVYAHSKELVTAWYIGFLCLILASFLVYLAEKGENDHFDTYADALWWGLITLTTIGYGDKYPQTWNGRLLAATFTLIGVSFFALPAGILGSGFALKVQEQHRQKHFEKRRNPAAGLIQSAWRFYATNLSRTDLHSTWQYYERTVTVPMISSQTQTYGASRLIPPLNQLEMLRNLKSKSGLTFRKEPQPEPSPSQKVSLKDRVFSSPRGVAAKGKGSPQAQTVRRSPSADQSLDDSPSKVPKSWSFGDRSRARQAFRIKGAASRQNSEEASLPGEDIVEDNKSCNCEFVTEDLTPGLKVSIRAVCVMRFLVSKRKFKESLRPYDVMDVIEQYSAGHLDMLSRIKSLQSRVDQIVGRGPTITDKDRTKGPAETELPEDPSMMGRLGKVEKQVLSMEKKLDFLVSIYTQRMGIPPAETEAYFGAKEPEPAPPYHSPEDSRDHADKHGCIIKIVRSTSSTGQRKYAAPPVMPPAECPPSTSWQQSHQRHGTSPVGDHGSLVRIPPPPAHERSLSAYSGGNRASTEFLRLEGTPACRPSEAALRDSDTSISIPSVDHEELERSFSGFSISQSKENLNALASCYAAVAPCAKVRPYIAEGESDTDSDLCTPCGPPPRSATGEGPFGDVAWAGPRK
# KCNQ2 block baseline – recorded beside KCNQ2 block, whose call it bears; B-score; measured here: initial fluorescence intensity artifact check;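 brightness before thallium and not channel activity; 0 = typical well and far values either way flag optical interference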
# * = called active by the depositor; i = inactive.
SMILES,KCNQ2 block,KCNQ2 block baseline
CSc1nsc(/C=C/Nc2ccc(F)cc2F)c1C#N,i,0.18
CN(C)C(CNC(=O)c1cc(S(=O)(=O)N(C)c2ccccc2)ccc1Cl)c1cccs1 (stereo unspecified),i,3.5
COc1cccc(OCC(=O)Nc2cc(NC(=O)COc3cccc(OC)c3)cc(C(=O)O)c2)c1,i,-0.03
Cc1[nH]c2ccc(C(=O)NCCCN3CCCCCC3)cc2c1C,i,0.89
Cc1c(/C=C/C(=O)c2ccccc2)cnn1C,i,-0.56
Cc1cc(C)n(C(=O)N(c2ccccc2)c2ccccc2)n1,i,0.45
Cc1cc(C)nc(Nc2n[nH]c(COc3ccc(Cl)cc3)n2)n1,i,0.08
CCOC(=O)c1nnn(-c2nonc2N)c1CNc1ccccc1,i,-1.1
COc1cccc(/C=C2\N=C(c3c(-c4ccccc4)noc3C)OC2=O)c1,i,-0.73
COc1ccc2[nH]cc(CCn3ccc(=O)c(C)c3C)c2c1,i,1.2

# Structural class, the compounds so far with a Cl atom (two)
SMILES,KCNQ2 block,KCNQ2 block baseline
CN(C)C(CNC(=O)c1cc(S(=O)(=O)N(C)c2ccccc2)ccc1Cl)c1cccs1 (stereo unspecified),i,3.5
Cc1cc(C)nc(Nc2n[nH]c(COc3ccc(Cl)cc3)n2)n1,i,0.08

# (listing goes on)
SMILES,KCNQ2 block,KCNQ2 block baseline
CC1(C)C(C#N)=C(N)OC2=C1C(=O)CCC2,i,0.57
C#CCOCCOCCOCCNc1nc(N2CCN(C(=O)[C@H](Cc3cc4ccccc4[nH]3)n3cc([C@@H](N)C(C)CC)nn3)CC2)nc(N2CCN(C(=O)[C@H](CCCCN)n3cc([C@@H](N)CC(C)C)nn3)CC2)n1 (stereo partly specified),i,2
O=C(OCc1cc(Cl)ccc1OC(F)F)c1cncc(Br)c1,i,0.1
Cc1cc(C)cc(OCC(=O)O/N=C(\N)c2ccccc2Cl)c1,i,0.34
CN(C)c1ccc(/C=C(/NC(=O)c2ccccc2)C(=O)NCCCn2ccnc2)cc1,i,1.5
O=c1[nH]c(-[n+]2ccccc2)c(/C=N/N=C(\[O-])c2ccccc2)s1,i,2
Cc1ccc(NC(=S)N(CCCN2CCCC2)Cc2cccn2Cc2ccc(Cl)cc2)cc1Cl,i,-0.89
COc1ccc(CNCCC(c2ccccc2)C2CCOC(C)(C)C2)cc1 (stereo unspecified),i,0.93
CC1CCCN(CCOCCOc2ccc(Br)cc2Cl)C1 (stereo unspecified),i,1.3
CCc1nnc(NC(=O)c2ccc(COc3ccc(C)cc3)o2)s1,i,0.7
CCN(CC)C(=O)C1CCCN(c2ncnc3c2cnn3-c2cccc(C)c2)C1 (stereo unspecified),i,0.51
C=CCOc1ccc(/C=C/C(=O)OCC(=O)NCc2cccs2)cc1,i,0.05
COc1ccc(/C=N/NC(=O)c2cc(-c3ccccc3)nc3ccccc23)cc1O,i,-1.3
Cc1csc(C(C)N(C)C(=O)c2ccc(OC3CCN(Cc4ccccn4)CC3)cc2)n1 (stereo unspecified),i,1.2
CNc1c(NS(=O)(=O)c2ccc(C(C)(C)C)cc2)c(=O)oc2ccccc12,i,0.67
CCOc1cc(S(=O)(=O)NCCc2ccccc2C)c(OCC)cc1-n1cnnn1,i,-0.94
CCC1(CC)NC(=O)N(CC(=O)OCC(=O)Nc2ccc(F)c(F)c2F)C1=O,i,0.38
O=C(Oc1cccnc1)c1ccc(Cl)cc1,i,1.4
COc1cccc(-c2nnn(CC(C)=O)n2)c1,i,-0.51
O=C(CN(Cc1ccc2c(c1)OCO2)C(=O)CNS(=O)(=O)c1ccccc1)NCC1CCCO1 (stereo unspecified),i,0.91

# A few values from above:
# `CCN(CC)C(=O)C1CCCN(c2ncnc3c2cnn3-c2cccc(C)c2)C1` (stereo unspecified) in KCNQ2 block baseline reads 0.51
# `O=C(Oc1cccnc1)c1ccc(Cl)cc1` in KCNQ2 block baseline reads 1.4

# The results go on:
SMILES,KCNQ2 block,KCNQ2 block baseline
NC(=O)c1sc(=S)n(-c2ccc(Br)cc2)c1N,i,0.15
Fc1ccc(CNc2nc3ccccc3n3cnnc23)cc1,i,1.1
COC(=O)/C=c1/s/c(=C(/C#N)C(=O)N2CCOCC2)n(-c2ccccc2)c1=O,i,0.74
COCCn1c(C)nnc1SCC(=O)NNC(=O)c1ccc(Cl)cc1,i,-0.23
CCOC(=O)CSc1nc(-c2cccs2)nc2c1c(=O)n(C)c(=O)n2C,i,-0.25
COc1ccccc1N(CC(O)Cn1nc(C)cc1C)S(=O)(=O)c1ccccc1 (stereo unspecified),i,-0.08
CC(/C=C/c1ccc2c(c1)OCO2)=N\NC(=O)c1ccccc1,i,0.05
CCC1(C)OC(=O)N2CCc3c(C)[nH]c4c(C)ccc(c34)C21C (stereo unspecified),i,-0.87
Nc1nc(SCC(=O)N2CCc3ccccc3C2)[nH]c(=O)c1-c1ccccc1,i,3.4
CCC(=O)NC(=S)Nc1ccccc1C(=O)NC1CCCCC1,i,9.9
CCN(CC)S(=O)(=O)c1ccc(NC(=O)c2ccc(NS(C)(=O)=O)cc2)cc1,i,0.9
COc1cc(NC(=O)CN(c2ccc(C)cc2)S(=O)(=O)c2c(C)noc2C)cc(OC)c1,i,-0.26
O=C(NCc1cccc(Cl)c1)C1CCN(S(=O)(=O)c2ccc(F)cc2)CC1,i,0.02
CNC(=O)c1ccc2c(c1)nnn2C,i,-0.01
Cc1ccoc1C(=O)N1CCCC(CO)(Cc2ccc(F)cc2)C1 (stereo unspecified),i,0.49
Nc1c2c(nc3sc4c(c13)CCCCC4)CCCCC2,i,0.5
COc1ccc2c(CC(=O)Nc3nnc(C4CC4)s3)coc2c1,i,0.26
COc1ccc(/C=N/NC(=O)c2c([N+](=O)[O-])c(C)nn2C)cc1,i,0.3
C=CCNc1nc(C(=O)OCC(=O)Nc2cc(S(C)(=O)=O)ccc2Cl)cs1,i,0.94
CC1(C)CC(=O)C2=C(C1)Nc1ccccc1NC2,i,1.1

# Profiles from above. Screens in order: KCNQ2 block | KCNQ2 block baseline
# `COc1ccc(/C=N/NC(=O)c2c([N+](=O)[O-])c(C)nn2C)cc1` is listed with i | 0.3
# `Nc1c2c(nc3sc4c(c13)CCCCC4)CCCCC2` is listed with i | 0.5
# `Cc1ccoc1C(=O)N1CCCC(CO)(Cc2ccc(F)cc2)C1` (stereo unspecified) is listed with i | 0.49
# `COc1ccc2c(CC(=O)Nc3nnc(C4CC4)s3)coc2c1` is listed with i | 0.26

# Following part
SMILES,KCNQ2 block,KCNQ2 block baseline
O=C(/C=C/c1ccccc1)Nc1cc(S(=O)(=O)N2CCOCC2)ccc1N1CCCC1,i,1.9
CCCN1CCOC(CC(=O)Nc2ccc([N+](=O)[O-])cc2)C1=O (stereo unspecified),i,0.23
O=c1[nH]cnc2ccccc12,i,0.68
CC1(C)Cc2cccc(OCC(=O)N3CCN(c4cccc(Cl)c4)CC3)c2O1,i,0.01
CN(C)c1ccc(NC2=C([N+](=O)[O-])CS(=O)(=O)C2)cc1,i,-0.34
O=C(N/N=C1/CCCc2ccccc21)c1cc([N+](=O)[O-])cc([N+](=O)[O-])c1,i,0.54
CCN(CC)c1ccc(C=C2C(=O)OC3(CCCC3)OC2=O)cc1,i,2.7
Cc1cc(C)cc(NC(=O)C2CC(=O)n3ncnc3N2)c1 (stereo unspecified),i,-0.71
S=C(Nc1ccc(Oc2ccccc2)cc1)NC1CCCCCC1,i,-0.03
CCOC(=O)C1=C(C)NC(=O)NC1c1ccc2c(c1)OCO2 (stereo unspecified),i,2
CC(Oc1ccc(F)cc1)C(=O)Nc1nc(-c2ccccn2)cs1 (stereo unspecified),i,0.69
Cc1ccc(CNCC(=O)Nc2cccc(S(=O)(=O)NC3=NCCCCC3)c2)cc1,i,0.66
CC(=O)c1ccc(N2CCN(C(=O)C(=O)c3cn(CC(=O)N4CCCCCC4)c4ccccc34)CC2)cc1,i,0.63
CCCc1[nH]nc2c1C(c1ccc(OC)cc1OC)C(C#N)=C(N)O2 (stereo unspecified),i,-0.57
CCOc1ccc(OCc2cccc(C(=O)N3CCCCCC3)c2)cc1,i,-1.1
CCOC(=O)C1CCCN(C(=S)NC2CCCCC2)C1 (stereo unspecified),i,-0.94
Cn1c2c(c(=O)n(C)c1=O)C(NC(=O)C(C)(C)C)(C(F)(F)F)C(=O)N2 (stereo unspecified),i,-0.02
CCC(C)NC(=O)COC(=O)c1cccnc1Nc1ccccc1F (stereo unspecified),i,2.5
Cc1ccc(/C=c2/sc3n(c2=O)CCCN=3)o1,i,0.25
O=C1CC(c2cccs2)Cc2nc(NC(=O)C3CC3)ncc21 (stereo unspecified),i,2.3
COc1ccc(OC)c(Nc2cc(C)nc3ccccc23)c1,i,-0.25
Cc1cccc(NC(=O)c2ccc(COc3ccccc3[N+](=O)[O-])o2)n1,i,2.1
O=S(=O)(NCCc1cn2ccccc2n1)c1ccc(-c2ccccc2)cc1,i,-0.02
CNC(=O)c1nnsc1S(=O)(=O)c1ccc(Cl)cc1,-7.1*,-0.81*
Cc1nn(-c2ccccc2)c(Cl)c1/C=N/Nc1nc2ccccc2[nH]1,i,0.08
CCOC(=O)N1CCN(Cc2nc3c(c(=O)[nH]c(=O)n3C)n2Cc2ccccc2C)CC1,i,0.05
O=C(Nc1nccs1)c1ccc(N2C(=O)C3CCCCC3C2=O)cc1 (stereo unspecified),i,-0.56
O=c1c2ccccc2sc2nc(C3CCCCC3)n(Cc3ccco3)c(=O)c12,i,-0.88
CC(C)(C)c1cc(CN(CCO)CCO)cc(C(C)(C)C)c1O,i,0.27
COc1ccccc1N(C)S(=O)(=O)c1ccc(C(=O)OCC(=O)NCc2ccco2)cc1,i,0.69
C#Cc1ccc([C@@H]2C=C(C(=O)N3CCN(Cc4ccccc4)CC3)O[C@H](OCCCCO)C2)cc1,i,-0.3
CCc1ccc(Nc2ccc(C(=O)O)cc2[N+](=O)[O-])cc1,i,0.5
O=C(c1cc2c(s1)CCCC2)N1CCN(C(=O)C2CCCO2)CC1 (stereo unspecified),i,0.64
CC(NC(=O)CN(C)Cc1cccc(Cl)c1)c1ccccc1 (stereo unspecified),i,0.5
O=C(c1ccco1)N1CCN(c2cc(=O)n(-c3ccc(Cl)cc3)c(=O)[nH]2)CC1,i,0.16
COc1ccccc1N(C)S(=O)(=O)c1ccc(Cl)c(C(=O)Nc2ccncc2)c1,i,0.06
O=C(/C=C/c1ccccc1Cl)Nc1ccccc1,i,-0.23
CSc1ccc(/C=N/NC(=O)CN2CCN(Cc3ccccc3Cl)CC2)cc1,i,-2.4
Cc1ccc(C(=O)Nc2ccc3c(c2)OCO3)o1,i,0.04
Cc1ccccc1CN1C[C@@H]2C[C@@H](c3cn[nH]c3-c3ccccc3)N3CCC[C@@]23C1=O,i,-0.24
Cc1ccc(C)c(S(=O)(=O)NCc2ccc(C(=O)N3CCN(c4ccccc4)CC3)cc2)c1,i,-3.3
COCCCNC(=O)c1c(N)n(-c2ccccc2)c2nc3ccccc3nc12,i,-0.45
CCN1CCN(C(=O)c2ccc(CNS(=O)(=O)c3cccc(OC)c3)cc2)CC1,i,-2.1
CN(C)c1ccc(C2CC(c3cccc(NS(C)(=O)=O)c3)=NN2C(=O)c2ccccc2)cc1 (stereo unspecified),i,1.9
Cc1ccc(C(CNC(=O)c2ccco2)N2CCN(C)CC2)cc1 (stereo unspecified),i,0.56
O=C(NC(c1cccnc1)C(F)(F)F)c1cc(COc2ccc3c(c2)CCCC3)on1 (stereo unspecified),i,-0.48
Cn1[nH]c(C(F)(F)F)c(C=Nc2ccc(Cl)cc2)c1=O,i,-0.36
CCCCC(=O)NNC(=S)NC(=O)c1cccc([N+](=O)[O-])c1,i,-0.94
CC(C)(C)c1cn(-c2ccc(Cl)cc2)c(=S)[nH]1,i,0.62
O/N=C(\c1ccccn1)C1CC1c1ccccc1 (stereo unspecified),i,0.77

# Quoted at random: two compounds from above
SMILES,KCNQ2 block,KCNQ2 block baseline
O=C(N/N=C1/CCCc2ccccc21)c1cc([N+](=O)[O-])cc([N+](=O)[O-])c1,i,0.54
COCCCNC(=O)c1c(N)n(-c2ccccc2)c2nc3ccccc3nc12,i,-0.45

# Additional results:
SMILES,KCNQ2 block,KCNQ2 block baseline
CN(C)CCNC(=S)Nc1ccc(Cl)cc1,i,-0.91
Cc1ccc(C(C(=O)NC2CCCCC2)N(Cc2ccco2)C(=O)Cc2c[nH]c3ccccc23)o1 (stereo unspecified),i,-0.31
FC(F)(F)c1cccc(NC(=S)N2CCN(c3cccc(C(F)(F)F)c3)CC2)c1,i,1.3
CC(=O)CSc1nc(N)c(C#N)c(-c2cccs2)c1C#N,i,1.8
COc1ccc(CNC(=O)CN(Cc2ccc(Cl)cc2)S(=O)(=O)c2ccccc2)cc1,-7.5*,-0.01*
O=C(NNC(=S)NC1CCCCC1)c1sc2ccccc2c1Cl,i,-1.2
O=C(Cc1ccccc1)Nc1nnc(-c2cccc([N+](=O)[O-])c2)s1,i,-0.01
Fc1ccc(-c2onc3ccc(C4OCCO4)cc23)cc1,i,-0.36
COc1cccc(CNC(=O)c2cccc(S(=O)(=O)N3CCN(c4ccc(F)cc4)CC3)c2)c1,i,0.28
COc1ccccc1C(=O)C1CCCN(C(=O)Nc2ccccc2F)C1 (stereo unspecified),i,-0.84
S=c1nc(-c2ccccc2)n(CCCN2CCOCC2)c2c1CCCC2,i,-1.3
COc1ccc(-c2[nH]ncc2CN(C)Cc2cccnc2)c(F)c1,i,0.18
Cc1ccc(N(CC(=O)Nc2cc(C)cc(C)c2)S(=O)(=O)c2cccc3nonc23)cc1,i,-0.01
CCc1ccc(/C=C2\CN(CC)Cc3c2nc2ccccc2c3C(=O)O)cc1,i,1.6

# Screening results: PubChem BioAssay, Johns Hopkins Ion Channel Center

# This is a subset; rates above refer to the full screens.
